Mtb MenB inh: blocks the Mycobacterium tuberculosis MenB enzyme. AID 540299. 100,000 tested, 0.43% active. MenB enzyme assay, absorbance read-out; some hits fall short of the stated cut. inhibition, %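 (about 12 µg/mL by stock and volumes)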. P9WNP5;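 active means mean of two replicates above 30%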;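 further: 0% = no compound and 100% = wells with inactive enzyme; the first replicate is given; strong numbers were not always called active; inactives centre near -10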
Target sequence (P9WNP5 whole entry, looked up): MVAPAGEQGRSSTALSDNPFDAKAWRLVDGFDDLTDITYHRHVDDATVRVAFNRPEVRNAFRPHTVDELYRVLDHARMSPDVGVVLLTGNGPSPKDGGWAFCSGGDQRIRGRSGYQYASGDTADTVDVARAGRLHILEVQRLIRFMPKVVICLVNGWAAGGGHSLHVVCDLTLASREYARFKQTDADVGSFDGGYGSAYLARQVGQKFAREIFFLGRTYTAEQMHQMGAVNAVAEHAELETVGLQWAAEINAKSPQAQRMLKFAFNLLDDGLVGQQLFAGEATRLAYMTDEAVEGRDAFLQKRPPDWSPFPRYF
PV pol inh: poliovirus RNA polymerase inhibition; P03300; poliovirus polymerase elongation, fluorescence polarization; stronger effect = lower value; % elongation, % (compound at 16.7 µg/mL); 150,000 tested, 0.66% active; AID 588519; in the data active means % elongation below about 90%; further: some results filed as inactive read as strong as hits
MbtI inh: blocks the Mycobacterium tuberculosis siderophore enzyme MbtI. P9WFX0. purified MbtI enzyme, fluorescence intensity read-out. inhibition, %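 (about 17 µg/mL by stock and volumes)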. 100,000 tested, 0.89% active. AID 493033;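 active means above 50% in both replicates, above 80% if mildly self-fluorescent; inactive means the rest, strongly fluorescent compounds included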;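 further: 0% = mean of negative and 100% = mean of positive controls; one replicate is shown; some compounds called inactive have numbers as strong as hits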
Target sequence (P9WFX0 whole entry, looked up): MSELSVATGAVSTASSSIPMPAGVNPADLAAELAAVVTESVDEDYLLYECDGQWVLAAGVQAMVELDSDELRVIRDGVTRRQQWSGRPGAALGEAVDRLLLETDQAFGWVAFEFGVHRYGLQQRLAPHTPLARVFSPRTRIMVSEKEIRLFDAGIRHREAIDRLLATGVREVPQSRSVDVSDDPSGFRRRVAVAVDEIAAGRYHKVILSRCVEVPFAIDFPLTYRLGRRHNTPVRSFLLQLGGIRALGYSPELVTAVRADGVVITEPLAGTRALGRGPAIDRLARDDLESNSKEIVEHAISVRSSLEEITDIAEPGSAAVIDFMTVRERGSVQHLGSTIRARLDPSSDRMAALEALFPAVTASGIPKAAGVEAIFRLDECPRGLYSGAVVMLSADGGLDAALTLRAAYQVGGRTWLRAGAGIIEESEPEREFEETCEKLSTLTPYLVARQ
PV pol inh intensity: further read-out of PV pol inh, marked with its call; % elongation; measured here: total intensity read-out; formula for this scale not given here;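 total fluorescence in place of polarization; lower means less elongation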
The depositor's hits bear a star; / = not tested or not shown.

Start of the listing, in advance:
SMILES	Mtb MenB inh	PV pol inh	PV pol inh intensity	MbtI inh
O=C(O)C1CCCN1C(=O)Nc1ccccc1 (configuration not stated)	2	98	106	/
Cc1c(Sc2nc3ccccc3[nH]2)c(=O)[nH]c2cc3c(cc12)OCO3	3	100	101	6
CC(C)(C)c1ccc2c(c1)CN(Cc1ccccc1)CO2	5	99	100	5
O=c1ccc(S(=O)(=O)N2CCCC2)cn1Cc1cc(=O)n2cc(Br)ccc2n1	6	106	107	-1
COc1cccc(CNCc2ccccc2)c1	-48	101	102	4
Nc1ccc(Cc2nc3ccccc3s2)cc1	-13	104	110	9
CCc1ccccc1NC(=O)c1c[nH]c2ccccc2c1=O	-205	102	107	/

Main list (from the top)
SMILES	Mtb MenB inh	PV pol inh	PV pol inh intensity	MbtI inh
O=C(O)C1CCCN1C(=O)Nc1ccccc1 (configuration not stated)	2	98	106	/
Cc1c(Sc2nc3ccccc3[nH]2)c(=O)[nH]c2cc3c(cc12)OCO3	3	100	101	6
CC(C)(C)c1ccc2c(c1)CN(Cc1ccccc1)CO2	5	99	100	5
O=c1ccc(S(=O)(=O)N2CCCC2)cn1Cc1cc(=O)n2cc(Br)ccc2n1	6	106	107	-1
COc1cccc(CNCc2ccccc2)c1	-48	101	102	4
Nc1ccc(Cc2nc3ccccc3s2)cc1	-13	104	110	9
CCc1ccccc1NC(=O)c1c[nH]c2ccccc2c1=O	-205	102	107	/
COc1ccc(C(=O)COC(=O)c2ccc(N(C)C)cc2)cc1	-7	104	111	-8
O=C(NC1CCCCC1)c1cccc(S(=O)(=O)NCc2ccccc2)c1	/	98	91	4
Oc1ccc(Cl)cc1Sc1cc(Cl)ccc1O	-36	107	107	/
CNC(=O)O/N=C/c1nn(C(C)=O)cc1Br	-1	103	97	2
Cc1ccc(S(=O)(=O)N(Cc2nc(-c3ccccc3)no2)C2CCCCC2)cc1	-41	105	102	-22
O=C(NN=C1CCCC1)c1cccnc1	-22	105	102	-9
CC1(C)CC(=O)c2cc(-c3ccccc3)n(CC(=O)O)c2C1	-60	100	104	-14
COCCCn1c(=O)/c(=C\c2ccc(Br)cc2)s/c1=C(/C#N)C(=O)NCc1ccco1	-28	135	140	-5
N#CC1=C(N)N2C(=C(C#N)C13CCCC3)Nc1ccccc12	2	104	106	24
COC(=O)c1cc(NC(=S)NN(C)C)ccc1Cl	-27	110	108	/
CCOC(=O)Nc1ccc2c(COC(=O)c3oc4ccc(Br)cc4c3C)cc(=O)oc2c1	-23	109	112	53
O=C(Cc1ccc(Cl)cc1Cl)NC1CC1	-14	100	108	-1
Cc1cccn2c(=O)c(C=NCc3ccco3)c(Nc3ccc(Cl)cc3)nc12	9	105	102	9
O=C(Nc1nccs1)c1ccccc1C(F)(F)F	/	107	111	-8
COc1ccc2c(c1)NC(=O)CC(C)(C)O2	-60	105	106	-6
Cc1ccc(-n2cnc3cc(NCc4cccs4)ccc32)cc1	-41	101	102	-247
Cc1oc(-c2ccccc2)nc1C(=O)OC(C)c1nc2sc(C)c(C)c2c(=O)[nH]1 (configuration not stated)	-18	109	114	6
Cn1cc(C(=O)NCCN2CCN(Cc3ccccc3)CC2)c2c3ccccc3n(C)c2c1=O	0	105	104	70
Nc1nc(Cl)cc(N2CCCCC2)n1	23	102	105	14
COc1ccccc1-c1nnc(Cc2ccc(F)cc2Cl)o1	-24	103	98	-4
Cc1ccc(C2NC(=O)c3c(sc4c3CCC(C(C)(C)C)C4)N2)o1 (configuration not stated)	7	101	104	-2
c1ccc2c(c1)C(=NCC1CCCO1)NC2=NCC1CCCO1 (configuration not stated)	-6	108	111	103
Cc1cc(N2CC(C)CC(C)C2)nc2ccc(NC(=O)CCC(=O)N3CCCC3)cc12 (configuration not stated)	-13	102	109	-17
CSc1ccccc1C(=O)NC(C)C	-25	102	100	-28
O=C(OCc1nc2sc3c(c2c(=O)[nH]1)CCCC3)c1cc2c(s1)CCC2	-12	105	115	7
COC(=O)C1=CN(CCCN2CCCC2=O)C=C(C(=O)OC)C1c1cccs1	-58	101	102	88
CN(C)CC/C=C1/c2ccccc2COc2ccccc21	2	98	101	-9
COc1cccc(CC(=O)Nc2nccs2)c1	-19	97	106	7
Cc1cc(C(=O)Nc2ccc3nc(C)sc3c2)c(C)o1	6	109	111	7
Cc1ccc(-n2nnnc2-c2c[nH]c3cc(Cl)ccc23)cc1	-24	102	95	-3
Cc1ccc(Cn2ccsc2=NC(=O)CSc2nnc(-c3cccnc3)n2N)cc1	-19	110	114	4
Cc1c(C(=O)CSc2n[nH]c(=O)n2Cc2ccco2)sc2ccc(Cl)cc12	-56	102	103	0
COc1ccccc1OC(C)C(=O)NCc1ccccc1 (configuration not stated)	-19	104	103	4
CC(C)c1ccccc1NC(=O)c1cc2ccccc2oc1=O	6	102	101	-3
O=C1CCC(=O)N1CCOP1(=O)COc2ccccc2OC1	-7	102	99	-3
NC(=O)Cn1c(CN2CCCC2c2nc3ccccc3s2)nc2ccccc2c1=O (configuration not stated)	4	107	118	-9
COC(=O)C(C(=O)OC)=C1C2CC3CC(C2)CC1C3	/	103	109	-2
O=C(c1c[nH]c2ccccc12)C(Sc1nnc(C2CC2)o1)c1ccccc1 (configuration not stated)	-5	95	102	8
CCOC(=O)C1=C(C2CC=CCC2)NC(=S)NC1C (configuration not stated)	-7	103	102	/
CC(=O)Nc1cc2c(nc1C)nc(C)n2Cc1ccc(Br)cc1	-24	104	103	-10
COc1ccc(NC(=O)C(C)Sc2nc(N)cc(=O)[nH]2)cc1 (configuration not stated)	28	105	102	-15
CCN1C(=O)C[C@@H](C(=O)O)[C@@H]1c1ccc(OC)cc1OC	-26	103	104	/
Cc1cc(C)n(CCCC(=O)O)n1	1	104	107	-5
O=C(Cn1c(=O)c2cccn2c2ccc(F)cc21)N1CCc2ccccc21	-17	103	102	93
C/C=C1\CC(C)C(C)(O)C(=O)OCC2CCN3CCC(OC1=O)C23 (configuration not stated)	7	101	104	-3
O=c1oc(-c2cccc(C(F)(F)F)c2)nc2ccccc12	-14	100	94	/
c1nc(NCCN2CCOCC2)c2ccsc2n1	5	102	110	8
CCCn1c(NCc2ccc(Cl)cc2)nc2ccccc21	-3	100	102	-7
COc1cc(C2CC(=O)n3nc(-c4ccccc4)nc3S2)cc(OC)c1OC (configuration not stated)	-18	104	99	-5
O=C(OCn1nnc2ccccc2c1=O)c1cccc(S(=O)(=O)N2CCCCC2)c1	-6	103	99	-1
Cc1oc(C2CC2)cc1C(=O)O	10	100	105	2
COc1cc(C=Nc2ccc(Cl)cc2)ccc1OC(=O)/C=C/c1cccs1	-8	106	101	-9
Cc1nn(CCO)c(C)c1Oc1ccccc1O	/	102	102	-6

Part of the list above, set out differently.
CC(=O)Nc1cc2c(nc1C)nc(C)n2Cc1ccc(Br)cc1
  Mtb MenB inh: -24; PV pol inh: 104; PV pol inh intensity: 103; MbtI inh: -10

COc1ccc(NC(=O)C(C)Sc2nc(N)cc(=O)[nH]2)cc1 (configuration not stated)
  Mtb MenB inh: 28; PV pol inh: 105; PV pol inh intensity: 102; MbtI inh: -15

CCN1C(=O)C[C@@H](C(=O)O)[C@@H]1c1ccc(OC)cc1OC
  Mtb MenB inh: -26; PV pol inh: 103; PV pol inh intensity: 104; MbtI inh: /

(more compounds)
SMILES	Mtb MenB inh	PV pol inh	PV pol inh intensity	MbtI inh
Cc1nnc(SCC(=O)Nc2ccc3[nH]c(=O)[nH]c3c2)n1-c1ccccc1	3	102	106	-7
NC(=S)c1ccccc1N	-14	55*	45*	41
Cc1cccc(-n2c3nc(=O)[nH]c(=O)c-3cc3ccccc32)c1	-81	102	105	18
CC1(C)Cc2c(sc(/N=C/N3CCCC3)c2C#N)C(C)(C)N1	18	102	99	8
O=C(NCc1ccccc1)c1nnc(-c2ccc3c(c2)OCO3)o1	-9	102	100	-213
O=C(Nc1ccccc1)OCC#Cc1ccc(-c2ccccn2)s1	-13	102	100	92
CCCN(CC(=O)Nc1ccccc1C)C(=O)c1cc(=O)[nH]c2ccccc12	-2	106	101	3
Cc1ccc(NC(=O)/C(CN(C)C)=N\O)cc1	-13	103	105	0
COC(=O)C1C(C(C)C)N(c2ccccc2)OC1(C)O (configuration not stated)	-12	101	101	-10
CC(=O)OCC(=O)[C@@]1(O)CCC2C3CCC4=CC(=O)CC[C@]4(C)C3[C@@H](O)C[C@@]21C (some centres not stated)	5	100	101	-7
O=C(Nc1cnn(Cc2ccc(Cl)cc2)c1)c1ccccc1	-2	102	104	89
CN(CC(=O)N1CCc2ccccc2C1)S(=O)(=O)c1cnc[nH]1	4	101	103	-4
CCOC(=O)c1cccc(-c2ccc(C3C(C#N)=C(N)OC4c5ccccc5OC(=O)C43)o2)c1 (configuration not stated)	-79	55	243	/
O=C(O)CCCS(=O)(=O)c1ccccc1	35*	101	100	10
Cc1onc(-c2ccccc2)c1C(=O)OCc1ncc(-c2ccccc2)o1	-15	106	114	-60
Cc1cccc(C(=O)OC(C(=O)c2ccccc2)c2ccccc2)c1O (configuration not stated)	-20	99	102	-4
O=C(OCC(=O)N1CCN(C(=O)c2ccco2)CC1)c1ccccc1NS(=O)(=O)c1ccc(F)c(F)c1	-12	96	91	12
CC(C)c1ccccc1NC(=O)c1ccc(Br)o1	-24	99	101	9
COC(=O)c1cc(CN2CCN(C)CC2)ccc1O	4	106	101	/
CC(N)Cc1cccs1 (configuration not stated)	-26	104	103	-3
CCN(CC)S(=O)(=O)c1ccc(NC(=O)c2ccc(C)cc2)cc1	-6	107	105	/
CS(=O)(=O)N1CCC(C(=O)O)CC1	2	101	100	-1
CN(C)C(=O)CN1c2ccccc2-c2ccccc2S1(=O)=O	-8	102	103	/
CC(C)CCNC(=O)C1(C)CCC(=O)N1CCc1ccccc1 (configuration not stated)	10	100	102	2
Cc1c(C(=O)O)oc2ccc3c(c12)C=CC1(CCCC1)O3	-5	98	100	-2
O=C(NCc1cccs1)C1C2C=CC3(CN(Cc4cccs4)C(=O)C13)O2 (configuration not stated)	-12	100	103	-1
Cc1ccc(-n2nc(C)c3c2NC2=C(C(=O)CC(C)(C)C2)C3c2ccc(C)o2)cc1 (configuration not stated)	-18	101	105	4
CCOC(=O)c1ccc(-c2ccc(/C=N/NC(=O)Cc3nc4ccccc4n3C)o2)cc1	-13	112	121	-27
O=C(/C=C/c1cccs1)NC1CCS(=O)(=O)C1 (configuration not stated)	2	103	100	22
CCOC(=O)c1c(C)[nH]c(C)c1C(=O)COC(=O)c1ccc(F)c(S(=O)(=O)N2CCOCC2)c1	4	105	109	13
O=c1[nH]c2ccccc2n1CCCSc1nc2ccccc2[nH]1	1	101	105	12
CN(C)c1ccc(/C=N/N2CC(O)=C(c3nc4ccccc4s3)C2=N)cc1	12	98	106	-5
O=C(CSc1nnc2ccc3ccccc3n12)c1ccccc1	8	103	99	20
CCCN(CCC)C(=O)c1ccc(OC)cc1	-33	101	99	1
O=C1c2ccccc2C(O)(c2ccccc2)N1C1CC1 (configuration not stated)	-15	106	110	/
O=C(O)c1cc2nc3c(c(C(F)(F)F)n2n1)CCC3	7	100	104	-12
CCN(CC(=O)Nc1cc(C)c2c(=O)oc3ccccc3c2n1)Cc1ccccc1	-13	100	101	3
Cc1ccc(C)c(NC(=S)NCCCO)c1	-24	100	99	3
CC1(C)C2CCC1(C)C(NCc1ccccc1)C2 (configuration not stated)	5	103	97	58
CC1(C(=O)NN)NC2(CCCCC2)Cc2ccccc21 (configuration not stated)	-12	100	103	-1
COc1cc(/C=C\C(=O)OCn2nnc3ccccc3c2=O)cc(OC)c1OC	-34	102	96	-13
CN(C)c1ccc(C2CC(c3ccc(Br)cc3)=NN2S(C)(=O)=O)cc1 (configuration not stated)	5	107	107	3
CCN1CCN(CCCNC(=S)Nc2ccc3nc(N4CCN(CC)CC4)cc(C)c3c2)CC1	-16	99	100	36
COc1ccc(CNC(=O)C(C)Sc2nnnn2C)cc1 (configuration not stated)	-10	110	105	-6
Cc1ccc(-n2c(O)c(/C=N/c3ncn[nH]3)c3ccccc3c2=O)cc1	-39	100	100	-1
Nc1ccccc1N1CCOCC1	/	101	102	-9
COc1ccc(NC(=O)CC2SCCNC2=O)cc1 (configuration not stated)	-18	103	105	/
CS(=O)(=O)Cc1cccc(C(=O)Oc2ccccc2C#N)c1	-32	96	89	-5
CCCn1c(NC(=O)CCNC(=O)c2ccco2)nc2ccccc21	-26	98	102	5
Cc1cccc(-c2nc(CCNC(=O)/C=C/c3ccco3)cs2)c1	-17	102	101	5
CCOC(=O)C1=C(CSc2nnc(-c3cccnc3)n2Cc2ccccc2)NC(=O)NC1C (configuration not stated)	7	104	98	8
CN(CC(=O)NCc1ccccc1)S(=O)(=O)c1ccc2c(c1)CCC(=O)N2	-12	101	106	-7
CNC(=O)CSc1nnc(SCCC(=O)O)s1	4	98	101	7
COc1ccc(-c2csc(/N=C/N(C)C)n2)cc1OC	-11	104	101	12
Fc1c(F)c(N2CCOCC2)c(F)c(F)c1-c1ccccc1	-13	101	102	-14
Cc1cc(C)c(C(=O)Nc2ccc(C)c(C)c2)c(CC(C)(C)C(=O)O)c1	-2	107	102	-7
COC(=O)NP(=O)(NNc1ccccc1)OC (configuration not stated)	-16	107	103	14
O=C(COc1ccccc1C(=O)O)NC1CCCc2ccccc21 (configuration not stated)	-17	97	85	69
COc1ccccc1NC(=O)CN(C)S(=O)(=O)c1ccc2c(c1)CC(C)N2C(=O)C1CC1 (configuration not stated)	-17	103	102	-24
